Bioassay records deposited in PubChem BioAssay by National Center for Advancing Translational Sciences (NCATS).
CtBP-E1A inh – qHTS Assay for Inhibitors of the CtBP/E1A Interaction | CtBP / adenovirus E1A interaction (AlphaScreen) | AlphaScreen GST-E1A/His-CtBP binding, 1536-well; stronger effect = lower value; control for the full effect not named in the record | activity change, % (test concentration not listed) | 340,000 compounds, 0.49% hits; in the data active means activity change below about -65%; inconclusive means about -30% to -65%; inactive means above about -30%; further: on the % scale 0 is the no-effect control and ±100 the full control effect
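In 5 uL wells, 23 nL compound meets equimolar GST-E1A and His-CtBP (5X stock 125 nM each) for 2 h, 37 °C. Beads (5X, 50 ug/mL) then 1 h, 37 °C, dark.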
D2 ag – Beta-Arrestin HTS for Positive Allosteric Modulators of the Human D2 Dopamine Receptor: Agonists. DiscoveRx PathHunter D2 beta-arrestin, luminescence, 90 min; 100% = 57 uM dopamine signal. activation, % (no concentration beside the values). D(2) dopamine receptor (Homo sapiens), P14416. 360,000 compounds, 0.084% hits; in the data active = activation above about 40%; inconclusive = about 15% to 40%; inactive = below about 15%; further: compound concentration not given in the record; the text of the record calls up to 30% inactive
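Agonist mode: compounds alone added to overnight-plated D2 PathHunter cells for 90 min at 37 C, with 57 uM final dopamine (EC100) defining full response. Beta-arrestin recruitment detected by chemiluminescent reagent, read after 1 h at ambient temperature.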
PINK1 modulator – A Quantitative High throughput Screen to Identify Chemical Modulators of PINK1 Expression; PINK1 immunofluorescence, high-content cytometry, 24 h; Potency, µM (series often up to 76.6 µM), for the others: at the highest dose activation (PINK1 increase), usual class: activators; 410,000 compounds, 0.2% hits; AID 624263, 2012; active = well fitted activation curve with a large enough effect; inconclusive = small, poorly fitted or top-dose-only effect; inactive = flat fitted curve, though single readings scatter; cell line not stated here;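 further: potency means the concentration at half of the fitted maximal effect; % of control where 0% means no effect; nearly all actives have a fitted effect of over 65% in size; a mitochondrial uncoupler was the plate control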
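Readout is PINK1 immunofluorescence, quantified alongside mitochondrial, cell and nuclear markers by laser-scanning microplate cytometry. Cells from a stable line were exposed to compound titrations (5 concentrations) for 24 hours, with CCCP controls.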
D2 potentiator – Beta-Arrestin HTS for Positive Allosteric Modulators of the Human D2 Dopamine Receptor: Potentiators | D(2) dopamine receptor (Homo sapiens), P14416 | DiscoveRx D2 beta-arrestin cells, luminescence, 90 min; 100% = 57 uM dopamine signal | potentiation, % (concentration not given with the values) | 360,000 compounds, 0.23% hits | AID 624464, 2012; active = potentiation of 50% or more; inconclusive = 30% to 50%; inactive = 30% or less;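 further: tested on top of an EC20 dose of dopamine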
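PathHunter beta-arrestin assay in DiscoveRx D2 cells. Compounds were added with an EC20 of dopamine (50 nM final) for 90 min at 37 deg C. Luminescence was read 1 h after detection reagent, with 57 uM dopamine as the EC100 control.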
TRPML1 ag – qHTS for Agonists of the Human Mucolipin Transient Receptor Potential 1 (TRPML1); 410,000 compounds, 0.12% hits; activation, % (test concentration not listed); Mucolipin-1 (Homo sapiens), Q9GZU1; TRPML1-expressing cells, Ca2+ dye fluorescence, FDSS; host cell line not named in the record; reference of the full effect not given here; in the data active = activation above about 50%; inconclusive = about 30% to 50%; inactive = below about 30%; further: 0% is about no effect; the text of the record puts the active cut at 80%
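Tet-induced TRPML1-DL cells, 1,500 per well, cultured overnight, were loaded with a no-wash Ca2+ dye for 45–90 min. Calcium fluorescence was recorded on the FDSS for 110 s after compound addition, before the EC80 agonist (4 uM 54-4) was added.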
Six1-Eya2 blk – qHTS Assay for Inhibitors of the Six1/Eya2 Interaction. Homeobox protein SIX1 (Homo sapiens) + Protein phosphatase EYA2 (Homo sapiens), …. AlphaScreen GST-Six1/His-Eya2 binding, biochemical; stronger effect = lower value; control for the full effect not named in the record. activity change, % (test concentration not listed). 360,000 compounds, 0.56% hits; in the data active = activity change below about -65%; inconclusive = about -30% to -65%; inactive = above about -30%; further: on the % scale 0 is the no-effect control and ±100 the full control effect
Target sequence (O00167 whole entry, looked up): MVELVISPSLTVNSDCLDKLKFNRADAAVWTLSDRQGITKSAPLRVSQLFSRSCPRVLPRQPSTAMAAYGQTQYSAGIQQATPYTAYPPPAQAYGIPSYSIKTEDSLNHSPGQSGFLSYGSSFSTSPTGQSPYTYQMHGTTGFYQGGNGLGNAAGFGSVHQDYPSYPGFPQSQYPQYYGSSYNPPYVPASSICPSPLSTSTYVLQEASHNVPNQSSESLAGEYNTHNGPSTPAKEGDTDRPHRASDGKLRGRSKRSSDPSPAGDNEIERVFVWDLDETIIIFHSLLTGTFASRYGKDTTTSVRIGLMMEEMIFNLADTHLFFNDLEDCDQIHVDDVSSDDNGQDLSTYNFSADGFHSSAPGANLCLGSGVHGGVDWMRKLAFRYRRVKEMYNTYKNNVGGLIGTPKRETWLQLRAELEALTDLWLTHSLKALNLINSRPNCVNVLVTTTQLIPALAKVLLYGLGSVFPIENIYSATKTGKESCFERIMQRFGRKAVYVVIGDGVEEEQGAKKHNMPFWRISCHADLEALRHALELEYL
Target sequence (Q15475 whole entry, looked up): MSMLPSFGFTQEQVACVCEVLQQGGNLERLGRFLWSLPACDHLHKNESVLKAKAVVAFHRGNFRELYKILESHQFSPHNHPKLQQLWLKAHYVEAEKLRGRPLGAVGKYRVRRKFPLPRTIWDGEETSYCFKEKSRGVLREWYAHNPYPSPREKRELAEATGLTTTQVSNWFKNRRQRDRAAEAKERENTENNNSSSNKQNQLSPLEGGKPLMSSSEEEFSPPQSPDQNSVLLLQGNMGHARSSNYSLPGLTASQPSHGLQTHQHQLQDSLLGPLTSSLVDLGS
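Six1/Eya2 binding was read as AlphaScreen signal after compounds were pinned into GST-Six1 plus His-tagged Eya2 (5X stock 250/500 nM) in pH 8.0 Tris/NaCl/TCEP buffer, beads added, then incubated 1 h, 37 C, dark.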
* = called active by the depositor; ? = inconclusive; nt = not tested or not shown; [ ] = dose if it differs, or a comment.

SMILES	CtBP-E1A inh	D2 ag	PINK1 modulator	D2 potentiator	TRPML1 ag	Six1-Eya2 blk
Cc1ccc(Nc2nc(N)nc(CN3CCN(c4ccccc4F)CC3)n2)cc1	-12	?	3.4%	18	0.7	-22
CN(C)CCN1C(=O)c2cccc3cc([N+](=O)[O-])cc(c23)C1=O	-24	15	-6.6%	?	2.9	?
NNc1nc(-c2ccccc2Cl)c2cc(Br)ccc2n1	nt	3.5	0.3%	-7	-1.3	13
O=C(Cc1ccc(Cl)cc1)OCC(=O)c1ccc[nH]1	1	-5.4	1.4%	-1	0.3	3
CCOC(=O)[C@@H]1[C@H]2COc3ccc(Br)cc3[C@H]2N2C(=O)N(c3ccc(C(F)(F)F)cc3)C(=O)[C@]12C	2	2.4	?	1	1.4	0
CC(C)c1cc(NCCCN2CCOCC2)n2c(nc3ccccc32)c1C#N	2	0.7	nt	-18	-0.1	1
N/C(=N\OC(=O)N1CCOCC1)c1ccccc1	47	1.2	-4.1%[38.3 µM]	1	-0.5	24
COc1ccc(S(=O)(=O)N(C)CC(=O)NCCN2CCOCC2)cc1	0	-3.5	0.4%	-2	1.2	20
CCOC(=O)c1cnn(Cc2ccc(C)cc2)c1N	-4	1.0	0.3%	0	0.2	2
CC(=O)C1=C(C)Nc2ncnn2C1c1ccc(O)cc1 (stereo not drawn)	0	-5.0	2.6%	-2	nt	8
O=C(NCCC1CCCCN1S(=O)(=O)c1ccccc1)C(=O)Nc1ccccc1F (stereo not drawn)	11	-4.8	-5.5%	-13	1.9	-1
CCOC(=O)N1CCC(NC(=O)c2cc(C(=O)Nc3ccc(OC)c(OC)c3)ccc2CO)CC1	-2	-4.1	-1.9%	-14	-0.8	-1
COC(=O)c1cc2occc2n1Cc1nc(-c2ccccc2Cl)oc1C	0	-0.8	7.7%	2	-1.0	-2
C#CCCOC(=O)N1C2=NC(C(=O)OC)=C(C(=O)OC)[C@@H]3N(C)c4ccccc4[C@]23C[C@H]1C(=O)OC	4	-2.8	0.8%	-3	-0.4	12
O=C(CCCc1c[nH]c2ccccc12)N1CCOCC1	-6	-3.2	-1.2%	-1	1.1	-9
Cc1cccc(NS(=O)(=O)c2ccc(C)c(C(=O)NCC(c3cccs3)N3CCOCC3)c2)c1 (stereo not drawn)	nt	8.3	-0.2%	1	-0.6	-1
COc1ccc(NC(=O)c2ccc(S(=O)(=O)N(C)C)cc2)cc1	0	5.5	0.1%	-2	1.7	-10
CCOc1ccc(CCNC(=O)CCNS(=O)(=O)c2ccc3c(c2)CCN3C(C)=O)cc1OCC	-5	2.2	-1.5%	-14	-0.5	-2
COc1cc2nc(CN3CCN(S(=O)(=O)c4ccc(Cl)cc4)CC3)[nH]c(=O)c2cc1OC	-17	-3.0	1.1%	-9	0.0	-20
COc1ccc(/C=N/NC(=O)c2ccc3nc[nH]c3c2)cc1	-22	-2.2	2.2%	-2	-0.4	-7
O=C(O)c1cccc(S(=O)(=O)Nc2ccc3oc(=O)sc3c2)c1	-6	7.2	-0.5%	3	-0.1	-2
CCOc1ccc(NC(=O)c2ccc3c(c2)S(=O)(=O)N=C2CCCCCN23)cc1	2	-0.9	5.6%	-14	-0.2	-1
Cc1cccc(C(=O)O/N=C(\N)Cc2ccc([N+](=O)[O-])cc2)c1	-5	?	-1.7%	148*	0.5	-7
NC(=O)COC(=O)c1ccc(Oc2ccccc2)cc1	2	-3.6	0.7%	-18	0.4	-1
CCCCCCCOc1ccc(OC(=O)c2cccnc2)cc1	7	-1.1	nt	2	0.4	6
CC(C)CC1NC(=O)N(CC(=O)Nc2cc(S(=O)(=O)N3CCOCC3)ccc2Cl)C1=O (stereo not drawn)	14	0.4	-1.2%	-4	-0.6	5
O=c1ccc(S(=O)(=O)N2CCCC2)cn1Cc1nc(-c2ccccc2)no1	nt	-2.2	-0.7%	2	-0.6	7
COc1cc(C(=O)Oc2ccccc2/C=N/NC(=O)c2ccc(C)c(Cl)c2)cc(OC)c1OC	11	2.0	?	10	-0.4	-6
Cc1nnc(C)n1/N=C/c1ccc2c(c1)OCCO2	4	-0.3	-2.4%	5	0.0	6
CCOC(=O)CNC(=O)Cn1cnc2c(nnn2-c2ccc(F)cc2)c1=O	1	-2.9	?	1	-0.5	3
O=C(Oc1ccc(C(=S)N2CCOCC2)cc1)c1ccccc1F	nt	-6.9	-0.4%	7	nt	-21
COc1cccc(OC)c1OCCN1CCN(C(c2ccccc2)c2ccccc2)CC1	-29	-1.2	3.5%	-34	2.2	-7
Cn1cnnc1SCC(=O)c1c[nH]c2ccccc12	4	-3.6	?	-10	1.1	1
COc1ccc(N2CCN(C(c3ccc4ncccc4c3)c3nnnn3C(C)(C)C)CC2)cc1 (stereo not drawn)	-12	-3.9	2.3%	-9	-0.5	-15
CC(C)(C)C(=O)NCCCc1nc2ccccc2n1CCCOc1ccc(Cl)cc1	5	-2.4	-2.5%	-17	0.5	0
O=C(CSc1ncccn1)N/N=C/c1ccc(OC2CSC2)cc1	nt	-2.5	0.7%	-4	1.2	-2
NC(=O)C1CN(S(=O)(=O)c2ccc(Cl)cc2F)c2ccccc2O1 (stereo not drawn)	6	-4.2	0.1%	-1	2.5	6
O=C(OCC(=O)N(CCc1ccccc1)Cc1ccccc1)c1cccc(S(=O)(=O)N2CCOCC2)c1	0	-0.7	-0.2%	0	2.4	16
COc1ccccc1NC(=O)N1CCN(c2ccccn2)CC1	0	-4.0	-0.5%	4	-0.5	-1
FC(F)(F)c1cc(-c2ccccn2)nc2cc(-c3ccccc3)nn12	-7	-5.1	6.7%	-3	-0.3	-11
O=C(Cc1cccc2ccccc12)N/N=C/c1ccc(Sc2nc3ccccc3s2)o1	-11	-0.8	-1.1%	1	-0.5	0
CCN(c1ccc(OC)cc1)S(=O)(=O)c1nnc(NC(=O)COc2ccc(C)cc2)s1	nt	-5.3	12%	-6	0.2	1
Cc1nnc(NCCc2ccccc2)n(N)c1=O	19	-1.4	0.9%	-9	0.7	-3
CCOc1cc(/C=N/O)cc(Br)c1OCC	5	-3.6	-3.3%	-2	0.6	0
CCOC(=O)NC(=O)/C(C#N)=C\Nc1sccc1C(=O)OC	-13	-6.7	0.8%	1	0.6	-11
CCOC(=O)c1sc2cccc(F)c2c1N	6	-0.9	4.7%	-12	0.9	28
CN(C)c1ccc(-c2ccnc3c2CC(C)(C(=O)NCc2cccs2)O3)cc1 (stereo not drawn)	-20	3.5	5.6%	-1	-1.2	?
Cc1cccc2nc(CSc3nnnn3-c3ccccc3)cn12	-8	-0.2	-1.5%	-14	4.0	-2
COc1ccc(CNC(=S)Nc2ccc3nc(N4CCOCC4)cc(C)c3c2)cc1	-17	4.6	1.0%	-1	3.1	-9
CN(CC1CCOCC1)C(=O)CC1C(=O)NCCN1Cc1cccc(C(F)(F)F)c1 (stereo not drawn)	0	-1.3	-0.4%	-7	-0.7	1
COc1ccccc1NC(=O)NC(N)=O	-2	-2.4	-0.7%	11	-0.9	0
CC(C)C[C@H](NC(=O)c1nc[nH]c1C(=O)NCCCCCNC(=O)OC(C)(C)C)C(=O)OC(C)(C)C	-1	-0.3	22%	-4	1.2	-10
Cc1cc(NC(=O)CCCC(=O)O)nc(C)n1	-1	-3.4	0.9%[38.3 µM]	-1	0.5	3
O=C1c2cccc3cccc(c23)C(=O)N1OS(=O)(=O)c1ccccc1	-13	-1.2	-3.1%	-8	-0.4	-71*
O=C(c1ccccc1)N(Cc1cccs1)C1CCS(=O)(=O)C1 (stereo not drawn)	6	0.9	-4.1%[38.3 µM]	-6	-0.2	6
CSCC(=O)N1CCCC(C(=O)c2cc(F)ccc2F)C1 (stereo not drawn)	2	-3.1	2.7%	-2	-0.5	9
C(=N\Nc1nn2cnnc2c2ccccc12)/c1ccco1	-3	0.4	2.6%	-4	-0.6	-72*
COC(=O)c1ccccc1NC(=O)Nc1ccc(Cl)cn1	0	-2.5	-0.1%	-11	-0.4	-8
COCc1nc2ccccc2n1Cc1ccccc1Br	2	3.0	5.6%	0	1.0	4
COc1ccc(CCNC(=O)CSCc2ccc(F)cc2)cc1OC	0	-3.2	2.1%	-24	0.0	-4

Entries above that contain two or more sulfur atoms (6):
SMILES	CtBP-E1A inh	D2 ag	PINK1 modulator	D2 potentiator	TRPML1 ag	Six1-Eya2 blk
Cc1cccc(NS(=O)(=O)c2ccc(C)c(C(=O)NCC(c3cccs3)N3CCOCC3)c2)c1 (stereo not drawn)	nt	8.3	-0.2%	1	-0.6	-1
O=C(O)c1cccc(S(=O)(=O)Nc2ccc3oc(=O)sc3c2)c1	-6	7.2	-0.5%	3	-0.1	-2
O=C(CSc1ncccn1)N/N=C/c1ccc(OC2CSC2)cc1	nt	-2.5	0.7%	-4	1.2	-2
O=C(Cc1cccc2ccccc12)N/N=C/c1ccc(Sc2nc3ccccc3s2)o1	-11	-0.8	-1.1%	1	-0.5	0
CCN(c1ccc(OC)cc1)S(=O)(=O)c1nnc(NC(=O)COc2ccc(C)cc2)s1	nt	-5.3	12%	-6	0.2	1
O=C(c1ccccc1)N(Cc1cccs1)C1CCS(=O)(=O)C1 (stereo not drawn)	6	0.9	-4.1%[38.3 µM]	-6	-0.2	6

(list continues)
SMILES	CtBP-E1A inh	D2 ag	PINK1 modulator	D2 potentiator	TRPML1 ag	Six1-Eya2 blk
CC(=NCCc1ccccc1)C1=C(O)CSC1=O	-8	0.1	-0.1%	?	0.0	-19
CC(C)c1onc(C(=O)N2C(C)CCCC2C)c1[N+](=O)[O-] (stereo not drawn)	0	1.7	1.0%	-2	0.3	7
COc1ccc(C(c2c(C)n(C)n(-c3ccccc3)c2=O)c2c(C)n(C)n(-c3ccccc3)c2=O)cc1OC	-10	-6.1	1.8%	-12	0.1	-8
CC(=NNC(=S)N1CCCCCC1)c1cccc2cccnc12	-90*	-18	-1.2%	-50	-0.4	?
O=C(O)C(C(=O)Oc1ccccc1)C(C(=O)O)C(=O)Oc1ccccc1 (stereo not drawn)	-2	0.6	1.9%	-8	-0.3	1
CCC(C)[C@H](NC(=O)[C@@H]1CSC2c3ccccc3C(=O)N21)C(=O)NC1CCCC1 (stereo partly drawn)	3	-2.7	0.1%	-5	-1.6	1
CCCOc1ccc(-c2nc(=S)[nH][nH]2)cc1	7	-1.2	-32%[inhibitor][38.3 µM]	2	-0.9	4
CCOc1ccc2nc(COC(=O)c3cccs3)c(C(C)=O)[n+]([O-])c2c1	-17	0.6	-1.2%	0	3.4	-24
COc1ccccc1N1CC(C(=O)OCC(=O)c2c(N)n(C)c(=O)n(C)c2=O)CC1=O (stereo not drawn)	4	-3.0	1.6%	-12	-0.2	10
COc1cc(-c2cc(=O)c3c(O)cc(O)cc3o2)ccc1O	?	3.9	4.7%	15	nt	?
